# ALR inh = blocks human ALR sulfhydryl oxidase activity; P55789; purified ALR, DTT oxidation, H2O2 HRP-luminol luminescence; inhibition, % (concentration not given with the values); actives 3.8% (n = 290,000);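 active means mean and each replicate at 75% or more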;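 further: stock transfer was 7.5 nL into about 7.5 µL; 0% = neutral wells and 100% = wells with inactivated enzyme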
# UCH37 inh = human UCH37 deubiquitinating enzyme inhibition | Q9Y5K5 | purified proteasome/UCH37, Ub-AMC cleavage fluorescence | inhibition, % (test concentration not listed) | actives 0.33% (n = 330,000);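 active means mean of two replicates above 20%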;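 further: 0% = compound-free wells with enzyme and 100% = wells lacking proteasome; stock transfer was 100 nL into about 20 µL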
# Target sequence (Q9Y5K5 whole entry, looked up): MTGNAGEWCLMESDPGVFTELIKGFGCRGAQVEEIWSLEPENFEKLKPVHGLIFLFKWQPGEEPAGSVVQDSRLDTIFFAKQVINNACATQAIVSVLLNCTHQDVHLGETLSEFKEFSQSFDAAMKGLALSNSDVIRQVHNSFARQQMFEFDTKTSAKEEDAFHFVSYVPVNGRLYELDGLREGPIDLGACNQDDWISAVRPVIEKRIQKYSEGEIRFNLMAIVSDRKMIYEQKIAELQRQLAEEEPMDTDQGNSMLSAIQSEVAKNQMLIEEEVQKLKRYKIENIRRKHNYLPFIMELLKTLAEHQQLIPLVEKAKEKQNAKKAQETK
#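 assay system = human UCH37 enzyme supplied as purified proteasome complex | amount = proteasome at 0.15 nM in the dispensed enzyme solution | schedule = 30 min compound-proteasome preincubation then 25 min substrate reaction, room temperature | measured by = fluorescence, ex 355 nm, em 460 nm | benchmarks = no-proteasome wells (full inhibition) and compound-free wells (no inhibition)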
# E coli growth = blocks Escherichia coli growth. OD600, 23 h; stronger effect = lower value. OD600 absorbance (concentration not given with the values). actives 0.21% (n = 330,000). AID 1053175;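 active means OD600 absorbance below the run mean of sample wells minus 3.6 SD, in any replicate, cut at about 0.56 in these data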;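 further: stock transfer was 300 nL into about 60 µL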
# rRNA inh HTS = selective bacterial rRNA inhibition in E. coli; E. coli WT GFP vs humanized-ribosome RFP mutants, fluorescence, 24 h; stronger effect = lower value; DMSO median 0, no signal -100; GFP signal change (wild-type ribosome), % (test concentration not listed); actives 1.6% (n = 350,000); AID 720706;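 active means significant combined selectivity score with lowered wild-type GFP, culture density cut under 30%, mutant RFP and density less affected; inactive means any of these conditions unmet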; further: one replicate is shown; some compounds called inactive have numbers as strong as hits
# B2AR ag = human beta-2 adrenergic receptor agonism by FAP | P07550 | Am2.2-beta2AR cells, FAP receptor internalization, flow cytometry; reference of the scale not given here | response, % (no concentration beside the values) | actives 0.43% (n = 340,000) | AID 504454;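 active means response above a set limit, near 3 SD of response in nonfluorescent compounds, cut at about 42% in these data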;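 further: stock transfer was 100 nL into about 11 µL; a reference agonist was the positive control; negative values mostly stem from fluorescent compounds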
# HNF4A DNA FP = change in binding of human HNF4 alpha to DNA. P41235. HNF4a-FITC DNA binding, fluorescence polarization, 1 h. activity change, % at 10 µM. actives 0.3% (n = 360,000); in the data active means activity change above about 30%, passing the limit was not always enough;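 further: controls were the assay level and a saturating level of protein; the project sought stronger binding though the title names inhibitors; some compounds called inactive have numbers as strong as hits; positive values seem to mean higher polarization but the record does not say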
# Target sequence (P41235 whole entry, looked up): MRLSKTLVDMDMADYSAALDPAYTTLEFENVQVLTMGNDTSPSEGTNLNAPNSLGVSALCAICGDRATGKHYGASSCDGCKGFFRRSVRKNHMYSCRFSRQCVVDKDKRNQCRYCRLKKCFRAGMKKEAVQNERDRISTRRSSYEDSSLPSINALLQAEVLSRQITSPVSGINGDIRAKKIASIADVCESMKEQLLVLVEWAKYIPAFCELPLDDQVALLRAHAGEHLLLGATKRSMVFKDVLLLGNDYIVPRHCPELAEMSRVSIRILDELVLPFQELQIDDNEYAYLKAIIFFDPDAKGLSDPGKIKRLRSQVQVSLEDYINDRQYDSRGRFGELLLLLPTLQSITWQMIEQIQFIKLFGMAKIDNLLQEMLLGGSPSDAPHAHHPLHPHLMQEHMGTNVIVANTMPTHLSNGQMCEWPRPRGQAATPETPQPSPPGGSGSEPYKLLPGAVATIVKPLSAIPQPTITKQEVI
# FGF22 binding = FGF22 (human) thermal shift binding; AID 651658; Q9HCT0; recombinant FGF22 thermal shift, SYPRO orange fluorescence; percent of sucrose octasulfate shift, DMSO zero; actives 1.5% (n = 340,000); calls only at 9.99 µM;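 active means melting point raised past a set limit in the mean and every replicate; three in four hits are not shown here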
# Target sequence (Q9HCT0 whole entry, looked up): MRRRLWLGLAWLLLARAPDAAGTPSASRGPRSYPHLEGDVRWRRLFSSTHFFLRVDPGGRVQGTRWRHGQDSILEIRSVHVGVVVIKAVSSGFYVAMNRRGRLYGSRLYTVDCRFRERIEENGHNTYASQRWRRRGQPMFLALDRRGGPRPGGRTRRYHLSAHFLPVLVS
# rRNA inh HTS OD600 = recorded beside rRNA inh HTS, whose call it bears; OD600 change, %; measured here: OD600 growth;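 optical density of the mix in the first replicate; 0 = DMSO median and -100 = no signal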
# rRNA inh HTS RFP = further read-out of rRNA inh HTS, marked with its call; RFP signal change, %; measured here: RFP humanized mutant strains;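 first replicate; 0 = DMSO median and -100 = no signal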
# The depositor's hits bear a star; i = inactive; nt = no result given. A portion of the library (hit frequency here may not be typical).
# Screens in order: ALR inh, UCH37 inh, E coli growth, rRNA inh HTS, rRNA inh HTS OD600, rRNA inh HTS RFP, B2AR ag, HNF4A DNA FP, FGF22 binding
- Cc1cc(-c2ccccc2)n(-c2cc(N/N=C/c3ccccc3O)ncn2)n1
    -18.9, nt, nt, 5.5, 0.6, 5.5, 4.3, -3.7, i
- O=C(NCc1ccco1)C1CC(c2cccc([N+](=O)[O-])c2)=NO1 (configuration not stated)
    -9.4, 1.7, 0.704, 9.6, 0.7, -2.9, -9.9, 2.7, i
- Cc1noc(C)c1-c1nnc(-c2ccc(C(F)(F)F)cc2)o1
    nt, 0.8, 0.607, 6.5, 9.7, 2.2, -17.6, 1.5, i
- NNc1nc2c(Cl)cccc2s1
    6.0, 1.7, 0.66, -27.1*, -15.6*, -0.5*, 9.8, 0.2, i
- FC(F)(F)c1cnc(Sc2nnc(-c3cccs3)n2CC2CCCO2)c(Cl)c1 (configuration not stated)
    0.6, 2.2, 0.674, nt, nt, nt, -18.8, 6.5, nt
- CCc1c(C)c2cc(Cl)c(O)c(CN3CCCC3)c2oc1=O
    31.3, i, 0.685, 0.2, 3.8, -2.6, 2.6, 3.9, i
- O=c1[nH]c(C2CCN(S(=O)(=O)c3ccc(S(=O)(=O)NC4CC4)cc3)CC2)nc2c1nnn2Cc1ccc(F)cc1
    -12.6, 3.9, 0.675, -2.3, -20.8, 5.5, 5.6, 4.7, i
- O=S(=O)(c1ccc(Cl)c(S(=O)(=O)N2CCCC2)c1)N1CCCC1
    7.8, -0.1, 0.671, -0.9, -4.3, 1.6, -0.2, -1.9, i
- Cc1ccc(S(=O)(=O)N2CCCc3ccccc32)cc1C
    -6.2, 0.1, 0.613, -31.0, -39.6, -3.4, -2.2, 3.0, i
- COc1ccc(-n2nnc3c(=O)n(Cc4cccc(C)c4)cnc32)cc1
    -3.6, 1.2, 0.72, nt, nt, nt, -7.2, -0.7, nt
- CCC(C#CCN1CCCCC1)(CC)OCCC#N
    -2.9, -0.8, 0.73, nt, nt, nt, -3.0, -1.9, nt
- CC(C)=C1C2CCC1C(C(=O)Nc1sc(C)c(-c3ccc(C(C)C)cc3)c1C(N)=O)C2C(=O)O (configuration not stated)
    15.7, 2.3, 0.717, -15.1, -31.0, 15.7, 15.2, 0.9, i
- NC(=O)CCCCC(=O)OCCCc1cccs1
    -24.9, 1.2, 0.617, nt, nt, nt, 1.7, 0.2, nt
- C#CCOCCOCCOCCNc1nc(N2CCOCC2)nc(N2CCN(C(=O)CCCCCCCCCCNC(=O)[C@@H]([C@H](C)CC)n3cc(CCCCCN)nn3)CC2)n1
    nt, 4.0, nt, -52.9, -82.0, -36.8, 12.0, 1.3, i
- O=C(NCc1cccnc1)c1ccccc1[N+](=O)[O-]
    -9.9, 0.8, 0.655, 9.5, 4.3, 2.4, 8.4, 3.1, nt
- COC(=O)c1ccccc1NC(=O)c1cncc(Br)c1
    -5.1, 3.6, 0.665, nt, nt, nt, -4.8, 3.5, nt
- COC(=O)c1c(C)[nH]c(C(=O)C(C)OC(=O)c2c(C)noc2C)c1C (configuration not stated)
    -1.2, nt, nt, 7.9, 4.8, -0.2, 7.0, 4.1, i
- CC(C)C(=O)Nc1ccc(NC(=O)c2ccc3c(c2)OCO3)cc1
    -3.1, -4.8, 0.727, 14.7, 7.3, 0.6, 1.5, -5.0, i
- CCOc1ccc(C(C)=O)cc1COC(=O)CNC(=O)c1cccs1
    -1.9, 1.0, 0.689, -4.1, 0.0, 2.7, -1.5, 1.4, i
- CC(Oc1ccc(C#N)cc1)C(=O)N1CC=C(c2ccccc2)CC1 (configuration not stated)
    -2.6, 1.8, 0.698, -5.5, -26.9, -3.2, -4.3, 0.0, nt
- Cc1cccn2c(=O)c3cc(C(=O)NC4CCS(=O)(=O)C4)n(Cc4ccccc4)c3nc12 (configuration not stated)
    -2.3, i, 0.729, 5.2, 10.5, -1.3, -6.7, 5.1, i
- CC(C)OC(=O)C(C#N)c1nc2ccccc2nc1N1CCCC1 (configuration not stated)
    14.7, -21.6, 0.673, nt, nt, nt, -3.0, 1.6, nt
- NS(=O)(=O)c1ccc(CNC(=O)COc2ccc3c4c(c(=O)oc3c2)CCCC4)cc1
    6.8, -22.9, 0.694, 7.2, 9.1, 3.7, -4.1, 5.6, i
- C[C@@H]1CN([C@@H](C)CO)C(=O)CCCn2nncc2CO[C@H]1CN(C)S(=O)(=O)c1ccc(Oc2ccccc2)nc1
    nt, nt, nt, -1.2, 1.8, 2.5, nt, -2.0, i
- COc1ccc(-n2c(C)cc(C(=O)COC(=O)Cc3n[nH]c(=O)c4ccccc34)c2C)cc1
    -9.1, -2.2, 0.638, -20.5, -26.2, 25.0, -9.5, -0.8, i
- CCOC(=O)CC1CCCCN1C(=O)CCCn1nnnc1CN1CCC(C)CC1 (configuration not stated)
    -5.3, 3.8, 0.726, 4.1, 9.8, 1.8, 6.7, -5.0, i
- O=[N+]([O-])c1c(C(Cl)Cl)nn(-c2ccccc2)c1N1CCOCC1
    1.1, 3.8, 0.702, -42.2, -43.2, -1.3, 4.5, -0.8, i
- CCN1CCN(CCCNC(=O)CS(=O)(=O)Cc2nc(-c3cccc(OC)c3)oc2C)CC1
    90.5*, 2.7, 0.682, 0.3, 0.8, -3.3, -1.8, 1.4, i
- COc1cccc(CNC(=O)CSc2ccc(-c3ccncc3)nn2)c1
    -2.6, 2.9, 0.65, nt, nt, nt, nt, nt, nt
- CC1CCCC(NC(=O)C2CCN(S(=O)(=O)c3cccc4nonc34)CC2)C1C (configuration not stated)
    -7.1, 1.1, 0.689, 12.9, 5.7, 0.4, 4.1, 2.9, i
- CSCCC(NS(=O)(=O)c1ccccc1F)C(=O)NCc1cccs1 (configuration not stated)
    nt, 3.9, 0.68, 2.3, -1.3, -2.3, 3.5, -0.6, i
- COc1ccc(-c2c(-c3ccc(C#N)cc3)oc(=O)c3cc(OC)c(OC)cc23)cc1
    -4.0, -19.3, 0.715, -0.1, 1.5, 0.5, -3.7, 1.5, i
- COc1cccc(OCc2nnc(SCC(=O)N3c4ccccc4Sc4ccc(Cl)cc43)o2)c1
    -5.9, 1.3, 0.711, nt, nt, nt, -6.0, 8.0, i
- CCOC(=O)c1cc2occc2n1CC(=O)N1CCN(C(=O)c2ccco2)CC1
    -0.5, 1.0, 0.7, 17.8, 1.9, 1.8, -4.1, 0.9, i
- Cc1cc(C(=O)N(Cc2nnc(-c3ccc(Cl)cc3)o2)C(C)C)c2ccccc2n1
    -3.4, 0.6, 0.682, -3.3, -8.2, 0.8, 7.5, 2.8, i
- Cc1ccc(C(=O)NN2C(=O)C3C4C=CC([C@@H]3C2=O)C42CC2)cc1 (some centres not stated)
    1.2, 7.7, 0.63, 1.7, 0.3, 0.1, -0.7, -1.4, i
- CCOCc1cc(=O)[nH]c(SC)n1
    nt, 0.0, 0.62, 14.6, 20.6, -1.5, 5.7, 1.1, i
- CC(=O)Nc1ccc2c(c1)Cc1c(F)cccc1-2
    nt, 4.6, 0.656, nt, nt, nt, 6.5, -6.4, i
- Cc1c(C(c2ccccc2O)c2c(C)n(C)n(-c3ccccc3)c2=O)c(=O)n(-c2ccccc2)n1C
    8.4, -1.4, 0.691, 5.1, -1.8, -3.4, -6.4, -0.9, i
- CCN(CC(=O)NCc1cccs1)C(=O)COc1cccc(C(F)(F)F)c1
    1.8, 2.9, 0.701, 2.3, -20.6, 2.2, 13.9, -3.5, i
- c1ccc2c(CNn3cnnc3)cccc2c1
    -6.4, 1.4, 0.688, nt, nt, nt, -5.2, 1.1, nt
- COCC(=O)NCc1nc2ccccc2[nH]1
    nt, 4.0, 0.687, nt, nt, nt, 0.6, 3.1, nt
- CCCCNC(=O)c1ccc2c(c1)N(C)C(=O)c1ccccc1S2
    -6.3, 4.6, 0.695, 0.6, -6.4, 0.2, -3.8, -2.2, i
- CC[C@]12c3[nH]c4ccc(Cl)cc4c3CCN1C(=O)[C@@H](CC(=O)NC(C)(C)C)C[C@@H]2C(=O)N1CCN(C(=O)c2ccco2)CC1
    nt, 1.7, 0.664, -1.2, -6.4, 4.8, -8.3, 1.7, i
- c1ccc(Oc2ccc(-c3ccnc4nc(N5CCOCC5)nn34)cc2)cc1
    -0.6, -294.2, 0.677, 7.5, -3.2, -1.7, -16.5, 1.2, i
- COc1cccc(NC(=O)CN(C)C(=O)c2cccc(S(=O)(=O)N3CCN(c4ccccc4)CC3)c2)c1
    12.1, 2.3, 0.681, -28.9*, -18.4*, -2.7*, 5.9, 6.4, i
- CN(C)c1cccc(NC(=O)CCc2ccccc2)c1
    97.7*, 1.9, 0.703, nt, nt, nt, 23.1, 8.0, nt
- Brc1cccc2sc(N3CCCC3)nc12
    24.6, 0.0, 0.722, -5.7, -12.7, 2.8, 5.0, 3.6, i
- Cc1cc(C)c(C(=O)COC(=O)c2nn(C)c(=O)c3ccccc23)cc1C
    0.6, 2.9, 0.688, -4.2, -13.2, -3.2, 6.0, 4.1, i
- NC(=O)c1c(NC(=O)Cn2cc([N+](=O)[O-])cn2)sc2c1CCCC2
    -19.9, 3.0, 0.707, -1.8, 1.5, 2.5, -1.9, -0.8, i
- CCCCCCN1C(=O)C(O)=C(C(C)=O)C1c1ccc(Cl)cc1 (configuration not stated)
    9.3, 2.5, 0.783, nt, nt, nt, -1.7, -0.7, nt
- CCNc1ccc(C(=O)OCC(=O)N2CCCC2)cc1[N+](=O)[O-]
    2.3, 3.7, 0.648, 2.4, -2.6, -4.0, -7.0, -2.1, i
- Cc1cc(C)nc(/N=C2\NC(=O)CC(C(=O)O)N2c2ccc(F)c(Cl)c2)n1 (configuration not stated)
    -0.3, 4.5, 0.708, nt, nt, nt, nt, nt, nt
- CCCCC(=O)Nc1cccc(C(=O)Nc2ccccc2C(=O)O)c1
    6.7, 4.4, 0.627, -6.4, -7.0, 1.8, -4.8, -2.1, i
- COc1ccc(Cl)cc1N/C(N)=N/c1nc(C)cc(C)n1
    1.8, 3.7, 0.701, 7.9, 9.7, -1.7, 2.7, -2.4, i
- CC(C)(C)c1ccc(Nc2n[nH]c3ccccc23)cc1
    nt, nt, nt, -51.5, -76.8, -17.1, nt, 6.1, i
- O=C(O)C1CCCN(C(=O)c2cccc3ccccc23)C1 (configuration not stated)
    -2.0, 2.8, 0.716, 2.8, 5.4, 0.6, 1.9, 1.5, i
- C[C@H]1CN(CCc2ccccc2)C(=O)[C@@H]1CC(=O)NCc1ccccc1
    -8.0, -0.3, nt, 5.3, 2.8, -6.8, -12.6, -1.8, i
- Cc1ccc2c(c1)N(CC(=O)N1CCCCCC1)C(=O)CO2
    -1.7, 0.0, 0.671, nt, nt, nt, 9.0, -2.4, nt
- COC(=O)c1cc(S(=O)(=O)NCC2CCN(CCc3ccc(OC)cc3)CC2)c[nH]1
    -9.7, 1.8, 0.713, -0.1, 2.2, -0.4, 0.8, -1.3, i

# (list continues)
# Screens in order: ALR inh, UCH37 inh, E coli growth, rRNA inh HTS, rRNA inh HTS OD600, rRNA inh HTS RFP, B2AR ag, HNF4A DNA FP, FGF22 binding
- O=C(NCc1cccs1)C1CCN(c2nc3ccccc3o2)CC1
    -3.6, 1.3, 0.629, nt, nt, nt, -13.8, 1.5, nt
- C=CCOc1ccc(/C=C2\SC(=S)N(C(C(=O)O)c3ccccc3)C2=O)cc1 (configuration not stated)
    nt, 12.5, 0.706, -41.5*, -22.0*, -4.0*, -8.8, -6.1, i
- S=c1[nH]nc(Cc2cccs2)n1-c1cccc2ccccc12
    -2.9, 4.6, 0.66, nt, nt, nt, 2.6, 0.9, nt
- CN1CCCN(C2C3CC4CC(C3)CC2C4)CC1 (configuration not stated)
    -6.6, 2.0, 0.708, nt, nt, nt, -0.1, 3.3, nt
- CCC(=O)NCc1c(Cl)cccc1-n1cccc1
    -15.5, 2.7, 0.737, nt, nt, nt, -2.0, 2.1, nt

# Compound activity deposited in PubChem by several laboratories.
